Rce1 inh: yeast Ras-converting enzyme inhibition | calls only | AID 2563 | actives 0.27% (n = 290,000) | Q03530 | yeast membranes, quenched prenylated peptide cleavage fluorescence;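 active means fall in fluorescence gain of 50% or more versus controls, with final raw signal at or below 3038400; inconclusive means same 50% fall but final raw signal above 3038400; inactive means fall in fluorescence gain under 50%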;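 further: plate controls were neutral control wells for no effect and wells lacking membranes for full effect; tested at 10 µM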
Target sequence (Q03530 whole entry, looked up): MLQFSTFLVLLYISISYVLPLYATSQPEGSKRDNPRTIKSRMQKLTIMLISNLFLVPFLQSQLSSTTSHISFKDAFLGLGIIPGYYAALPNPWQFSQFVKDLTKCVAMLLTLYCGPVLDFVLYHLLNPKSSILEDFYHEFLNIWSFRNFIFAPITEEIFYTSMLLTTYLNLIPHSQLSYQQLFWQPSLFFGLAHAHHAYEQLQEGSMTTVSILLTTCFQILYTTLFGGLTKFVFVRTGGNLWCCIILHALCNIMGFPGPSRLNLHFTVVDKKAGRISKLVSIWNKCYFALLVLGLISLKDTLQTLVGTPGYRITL
MT1-MMP act inh: blocks activation of human MT1-MMP; HT1080 RFP-PRO-GFP cells, GFP/RFP ratio fluorescence, overnight; percent of plate control window, DMSO zero; actives 0.061% (n = 360,000); P50281; AID 651647; GFP/RFP ratio change, % at 20 µM;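 active means GFP/RFP ratio change of at least 30% with cell ATP level not reduced by more than half and red fluorescence within 50% of control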; further: strong numbers were not always called active
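Compound: 20 µM single dose, 1% DMSO / System: HT1080 RFP-PRO-GFP cells / Controls: DMSO and RFP-L50D-GFP cell wells / Read-out basis: GFP/RFP fluorescence ratio / Schedule: overnight compound exposure at 37 °C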
Yeast UUG start: yeast start codon fidelity modulation; activity score, % at 18.7 µM; actives 0.13% (n = 350,000); AID 602363; S. cerevisiae UUG-firefly luciferase reporter, luminescence/redox ratio;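 active means replicate mean at a twofold rise or more, about +100% in these data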;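 further: firefly luciferase made from a UUG start codon reports start codon fidelity; reporter light over untreated wells divided by growth signal over untreated wells; some hits fall short of that in this replicate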
HIV Env fusion: blocks HIV Env-driven cell-cell fusion. inhibition, % at 12.3 µM. actives 1.1% (n = 360,000). HeLa-JRFL Env/CEM21 cell fusion, luciferase;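 active means mean replicate inhibition score of at least 50 and every replicate individually at or above 50; inconclusive means only one of the two criteria met; inactive means mean below 50 and not all replicates reaching 50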;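 further: 0% = plate neutral controls and 100% = maraviroc near 300 nM; one replicate is shown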
eIF4H inh: inhibitors of RNA binding by human eIF4H. actives 0.94% (n = 290,000). inhibition, % at 35 µM. Q15056. eIF4H fluorescence polarization binding assay;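 active means 50% or more with normal probe brightness, or confirmed in later tests; inconclusive means above 50% with abnormal brightness, or retests that disagree; inactive means below 50% or failed in later tests; about a fifth of its hits are not listed in these tables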;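 further: calls also rest on retests at 20 µM and on dose response follow-up; 0% = protein and probe with vehicle and 100% = probe without protein; strong numbers were not always called active; many hits fall short of the cut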
PABP polyA inh: blocks human PABP binding to poly(A) RNA. P11940. fluorescence polarization. inhibition, % at 35 µM. actives 1% (n = 290,000). AID 2014;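 active means 50% or more with normal probe brightness, or confirmed in later tests; inconclusive means above 50% with abnormal brightness, or retests that disagree; inactive means below 50% or failed in later tests; about a fifth of its hits are not listed in these tables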;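 further: calls also rest on retests at 20 µM and on dose response follow-up; controls were probe without protein and protein plus probe with vehicle; some compounds called inactive have numbers as strong as hits; many hits fall short of the cut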
Target sequence (P11940 whole entry, looked up): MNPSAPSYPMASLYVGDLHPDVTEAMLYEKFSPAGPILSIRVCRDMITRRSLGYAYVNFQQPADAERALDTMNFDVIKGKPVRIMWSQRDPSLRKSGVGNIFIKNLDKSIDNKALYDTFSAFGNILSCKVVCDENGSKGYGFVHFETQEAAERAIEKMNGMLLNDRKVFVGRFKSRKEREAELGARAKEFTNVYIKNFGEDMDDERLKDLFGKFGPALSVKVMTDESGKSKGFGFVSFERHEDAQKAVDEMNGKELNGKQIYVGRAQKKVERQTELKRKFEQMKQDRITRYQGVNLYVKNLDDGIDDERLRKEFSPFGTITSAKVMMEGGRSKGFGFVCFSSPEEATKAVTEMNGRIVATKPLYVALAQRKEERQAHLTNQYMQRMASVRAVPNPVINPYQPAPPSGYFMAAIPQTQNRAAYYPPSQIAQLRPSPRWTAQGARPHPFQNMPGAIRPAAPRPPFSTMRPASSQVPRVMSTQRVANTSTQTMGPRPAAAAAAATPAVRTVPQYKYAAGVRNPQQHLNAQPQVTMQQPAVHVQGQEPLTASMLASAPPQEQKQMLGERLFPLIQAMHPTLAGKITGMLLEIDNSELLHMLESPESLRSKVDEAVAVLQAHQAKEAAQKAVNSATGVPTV
CSC inhib: blocks cancer stem cells; AID 2717; actives 1.1% (n = 300,000); inhibition, % at 7.5 µM; cancer stem cell-like cells viability, luminescence;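 active means mean at 75% or more and at least half the replicates too; inconclusive means mean and replicates disagree; tested in HMLE shEcad cells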;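 further: 0% = median of negative and 100% = median of positive control wells; the first replicate is given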
eIF4H inh retest: further read-out of eIF4H inh, marked with its call; inhibition, %; compound at 20 µM; confirmation average;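 mean of two retest wells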
PABP polyA inh retest: recorded beside PABP polyA inh, whose call it bears; inhibition, %; compound at 20 µM; confirmation repeats;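 mean of two retest wells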
MT1-MMP act inh RFP: further read-out of MT1-MMP act inh, marked with its call; RFP signal change, %; measured here: RFP expression control read;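 0 = vehicle wells; hits needed this value within 50% of zero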
Active calls of the source: *; i = inactive; ? = inconclusive; / = no result given.

SMILES	Rce1 inh	MT1-MMP act inh	MT1-MMP act inh RFP	Yeast UUG start	HIV Env fusion	eIF4H inh	PABP polyA inh	CSC inhib	others
Cc1ccc(NC(=O)c2c(C)noc2C)cc1	i	0	3	/	/	-6	4	-4
C[C@@]12C(=O)N(CC3CCCO3)CC(=O)N1[C@H]1c3ccccc3OC[C@@H]1[C@@H]2c1ccccc1 (stereo partly specified)	/	1	1	-13	9	/	/	-20
S=C(NCCN1CCOCC1)Nc1ccc(Cl)c(Cl)c1	i	4	5	/	4	3	-7	-6
CCOC(=O)c1cnn(CC2CCCCC2)c1N	i	7	1	-21	/	-15	1	-3
O=S(=O)(Nc1ccc2c(c1)CCC2)c1cccs1	i	0	-3	-3	-28	-1	8	-8
O=C(NC1CCCCC1)N1CCCC(c2nc(-c3ccc(S(=O)(=O)N4CCCC4)cc3)no2)C1 (stereo unspecified)	i	2	-11	/	-27	-8	-8	-18
CN(CC(=O)Nc1cccc2c1CCCC2)S(=O)(=O)c1ccccc1	i	-2	-4	-16	19	6	-5	-4
Nn1c(SCC(=O)Nc2ccc3c(c2)OCO3)nnc1-c1ccncc1	i	-7	-3	/	10	-11	-3	-8
Cc1cc(C)cc(NC(=O)Nc2cccnc2)c1	i	-1	-2	-14	-9	12	27	-3
CC(=O)Nc1sc2c(c1C#N)CCC(C)C2 (stereo unspecified)	i	7	-1	-8	-15	2	-2	-10
O=C1CCCc2ccccc2N1Cc1cccc(Cl)c1	i	3	-1	-17	/	2	2	-14
CCOC(=O)C1(CCc2ccccc2)CCN(C(=O)c2cnc(C)cn2)CC1	i	0	0	12	-3	-4	9	-12
COc1ccc(C(CCN2CCOCC2)c2c(OC)cc(OC)c3c(C)cc(=O)oc23)cc1 (stereo unspecified)	i	8	5	-4	13	-10	2	-1
COc1cc(C(C(=O)NCc2ccccc2)N(C(=O)c2snc(C(N)=O)c2N)C2CCCC2)cc(OC)c1OC (stereo unspecified)	i	2	3	-33	-15	3	-1	-8
COc1ccc(N2C(=O)C(CC(N)=O)N(NC(=O)c3cccc(OC)c3)C2=S)cc1 (stereo unspecified)	i	0	3	/	-31	-7	4	-16
C=C1c2cccc(C(F)(F)F)c2O[C@H](C(=O)OCC)[C@H]1OC	/	0	6	-1	1	/	/	/
O=C(/C=C/c1ccccc1)NC(NC(=S)Nc1ccc(Cl)cc1)C(Cl)(Cl)Cl (stereo unspecified)	i	2	-11	-14	61*	6	8	35
CCC1=NN(C(=O)CCc2ccc3c(c2)OCO3)C(O)(C(F)(F)F)C1 (stereo unspecified)	i	0	1	/	6	2	16	-1
O=C1CN(C(=O)COc2ccc([N+](=O)[O-])cc2Cl)c2ccccc2N1	/	0	2	-18	-13	/	/	-11
O=C(c1cc(-c2ccncc2)nc2ccccc12)N1CCN(S(=O)(=O)/C=C/c2ccccc2)CC1	i	-1	-4	/	/	-1	-11	-14
O=C(Nc1ccccc1C(=O)N1CCOCC1)c1noc2c1CCCC2	i	-4	-1	2	-67	-2	-3	18
O=C1CC(NNC(=O)c2ccc(Br)cc2)C(=O)N1 (stereo unspecified)	i	2	2	-13	1	-6	-6	-13
CC(C)CNC(=O)CC(=O)N/N=C/c1ccc(Br)cc1	i	5	1	-16	/	6	-8	/
CCOc1ccccc1NC(=O)CCNS(=O)(=O)c1cccc2nonc12	i	-1	5	-5	-15	-6	-2	3
Cc1ccc2c(c1)C(N1CCCC1=O)CC(c1ccco1)N2 (stereo unspecified)	i	-6	0	-12	/	11	7	16
(further entries)
SMILES	Rce1 inh	MT1-MMP act inh	MT1-MMP act inh RFP	Yeast UUG start	HIV Env fusion	eIF4H inh	PABP polyA inh	CSC inhib	others
O=C(c1ccc(Cl)cc1)C1CCN(C(=S)Nc2ccccc2)CC1	/	6	-5	-17	-4	/	/	/
CC(C)(C)c1cc(C(=O)Nc2ccc(F)cc2)n(Cc2ccc(F)cc2)n1	i	-8	-9	-3	2	1	10	41
COc1ccc(-c2noc(N3CCC(C(=O)N4CCN(c5ccccn5)CC4)CC3)n2)cc1	i	0	-18	0	63*	-1	0	-15
Cc1cc(=O)oc2cc(OC(=O)c3ccco3)ccc12	i	-3	4	/	3	1	15	/
Nc1ncncc1-c1ccc(Cl)cc1	i	-2	2	-3	10	1	5	1
CC(C)Oc1cccc(C(=O)NC(=S)N2CCN(c3ccc(C(F)(F)F)cc3[N+](=O)[O-])CC2)c1	i	7	-7	-20	/	6	5	24
CC(C)(C)c1ccc(/C=C/C(=O)O)s1	i	1	3	-14	6	8	12	-11
Cc1cc(C)cc(C(=O)NC2C(=O)N3C(C(=O)O)=C(CSc4nnc(C)s4)CSC23)c1 (stereo unspecified)	i	0	7	/	3	-4	2	10
CCC(=O)Nc1ncc2c(n1)CC(c1ccco1)CC2=O (stereo unspecified)	i	4	5	-10	13	107	2	-12	eIF4H inh retest=28;PABP polyA inh retest=37
Cc1ccccc1-n1c(SCC(=O)c2cc(C)n(C)c2C)nnc1-c1cccnc1	i	-1	2	/	/	16	23	-10
CCCc1nc(SCC(=O)N2CCN(c3ccccc3)CC2)c2c(=O)n(C)c(=O)n(C)c2n1	i	-5	-6	-10	5	-8	-9	-2
CCOC(=O)Nc1cccc2ccccc12	i	1	1	-14	/	-2	-1	-9
CN1C(=O)C(CC(=O)NCCc2ccccc2)N(NC(=O)c2ccc(Cl)cc2)C1=S (stereo unspecified)	i	1	3	-9	-22	1	-4	5
CCOc1cc2c(C#N)c(N3CCCC3)nc(N)c2c(N)n1	i	4	9	-13	-10	/	/	-27
CCOc1cccc(-c2cc(C(=O)N3N=C(C)CC3(O)C(F)F)c3ccccc3n2)c1 (stereo unspecified)	i	3	-2	/	5	-8	-11	-1
COc1cccc(C2CCCN2Cc2nc(-c3sccc3C)oc2C)c1 (stereo unspecified)	i	-3	-1	/	11	-2	-5	-1
O=C(C1=C(O)C(=O)N(CCN2CCOCC2)C1c1ccc(Cl)cc1)c1cc2ccccc2o1 (stereo unspecified)	i	-6	-1	1	1	-2	8	-11
CN(C)CCOC(=O)c1ccc2c(c1)S(=O)(=O)c1ccccc1C2=O	i	-1	1	10	-7	-3	-8	-7
CCN1CCN(c2nc3c(c(=O)n(C)c(=O)n3C)n2CCSc2ncccn2)CC1	i	0	5	-21	6	-7	-6	-6
COc1ccc(OC)c(C(=O)Cn2cnc3ccccc3c2=O)c1	i	0	0	-13	25	10	5	-24
CCC(=O)N(Cc1cc(=O)[nH]c2ccccc12)c1ccccc1OC	i	-2	0	0	-9	-1	4	2
O=C(NNC(=O)c1cc(Cl)ccc1[N+](=O)[O-])c1csc(N2CCOCC2)n1	i	2	5	/	-24	/	/	-23
COc1cccc(NC(=O)C2CCCCC2)c1	i	-1	0	-14	-33	-5	7	-3
CC(C)(C)c1ccc(C(=O)Nc2ccc([N+](=O)[O-])cn2)cc1	i	1	1	-5	-55	2	10	1
CCOc1cc(-c2nc3ccccc3s2)ccc1O	i	-4	-2	0	-30	-7	1	23
The listing continues:
SMILES	Rce1 inh	MT1-MMP act inh	MT1-MMP act inh RFP	Yeast UUG start	HIV Env fusion	eIF4H inh	PABP polyA inh	CSC inhib	others
COc1ccc(NC(=O)c2ccc(S(=O)(=O)N(C)c3ccccc3)cc2)cc1S(=O)(=O)N1CCOCC1	/	-7	-22	-18	27	/	/	/
N#C/C(=C/c1cccc([N+](=O)[O-])c1)C(=O)Nc1ccccc1O	i	-1	5	-4	-19	1	0	-8
COc1ccc2ccccc2c1CNC(C)CCc1ccccc1 (stereo unspecified)	i	-1	-3	17	50	7	-1	15
Cn1c(CSc2nc3ccccc3n2C)nc2ccccc21	i	-4	-6	-24	-27	10	-11	/
N#C/C(=C\c1ccc(OCc2ccc(C(=O)O)cc2)cc1)C(=O)N1CCOCC1	i	-1	4	/	65*	18	4	25
CSc1cccc(-n2ccc(=O)c(C)c2C)c1	i	6	3	-10	7	-10	-1	-14
O=c1[nH]c2ccccc2cc1CN(CC1CCCO1)S(=O)(=O)c1ccc(Cl)cc1 (stereo unspecified)	i	2	-1	-22	6	-2	2	3
Cc1cc(/C(N)=N/OC(=O)c2cccc(Cl)c2)no1	i	-2	0	-18	-37	-19	2	-2
CCC(Oc1ccccc1)C(=O)Nc1ccccc1N1CCCC1 (stereo unspecified)	i	-4	2	1	30	4	19	8
CCCNS(=O)(=O)c1cccn1-c1ncc(C(F)(F)F)cc1Cl	i	0	-2	-12	-1	-2	-4	/
COc1ccc2nc(Nc3sc4c(c3C(N)=O)CCCC4)sc2c1	/	-1	11	/	-83	4	0	10
c1ccc(-c2cnnc(-c3ccccn3)n2)cc1	i	0	3	-14	-31	/	/	-5
Cc1cccc(N2CCN(C(=S)Nc3ccc4nc(N5CCOCC5)cc(C)c4c3)CC2C)c1 (stereo unspecified)	/	-1	-8	/	-16	0	?	43
O=C(/C=C/c1ccccc1Cl)NNC(=O)c1ccncc1	/	-3	0	-7	1	/	/	18
Cc1cc(N2CCN(c3ccc([N+](=O)[O-])c4cccnc34)CC2)c2ccccc2n1	i	0	-1	/	/	-13	0	2
CCOC(=O)c1cn(C2CC2)c2c(F)c(F)c(F)cc2c1=O	i	0	6	/	-4	10	22	/
Nc1ncc2[nH]c(N)nc2n1	/	2	7	13	-8	/	/	/
Cc1ccc(Cl)cc1N1CCN(S(=O)(=O)c2ccc3c(c2)OCCO3)CC1	i	-2	-3	-8	-7	-12	7	10
Cn1cccc1/C=N/NC(=O)Cn1cnc2ccccc21	i	5	2	-19	/	-4	-11	14
CCOC(=O)C(Cc1ccc(O)cc1)NC(=O)CNC(=O)C(CC(C)C)NC(=O)OC(C)(C)C (stereo unspecified)	i	2	7	/	21	0	4	-4
Cc1ccccc1C(=O)Nc1cccc(-c2nnc(SCC(=O)O)n2C)c1	i	4	1	-16	/	-3	-1	-10
COC(=O)c1ccc(CSc2nnnn2-c2ccccc2)o1	i	1	10	-9	/	-8	-2	-18
Cc1c(C(=O)N2CCN(S(C)(=O)=O)CC2)oc2ccccc12	i	2	3	2	-8	-2	-2	-21
CN(C)C(=O)c1ccc(NC(=O)CSc2nnc(-c3cccs3)n2N)cc1	/	1	1	-5	/	/	/	-1
CCCNC(=O)CNC(=S)N(Cc1cc(OC)c(OC)c(OC)c1)C1CCCC1	i	-1	3	-20	0	4	10	-17
C#CCSc1nc(C)cc(C(=O)OCC)c1C#N	/	0	-1	/	2	-16	-6	-6
CC(C)c1ccc(N2C(=O)C3C4C=CC(CC4)C3C2=O)cc1 (stereo unspecified)	i	4	-9	-20	8	6	0	51
O=C(Nc1cccc(-c2ccc(F)cc2)c1)C1CCCN(C(=O)c2cscn2)C1 (stereo unspecified)	i	0	0	-14	-6	3	11	-8

In the list so far, five have a cyano group:
SMILES	Rce1 inh	MT1-MMP act inh	MT1-MMP act inh RFP	Yeast UUG start	HIV Env fusion	eIF4H inh	PABP polyA inh	CSC inhib	others
CC(=O)Nc1sc2c(c1C#N)CCC(C)C2 (stereo unspecified)	i	7	-1	-8	-15	2	-2	-10
CCOc1cc2c(C#N)c(N3CCCC3)nc(N)c2c(N)n1	i	4	9	-13	-10	/	/	-27
N#C/C(=C/c1cccc([N+](=O)[O-])c1)C(=O)Nc1ccccc1O	i	-1	5	-4	-19	1	0	-8
N#C/C(=C\c1ccc(OCc2ccc(C(=O)O)cc2)cc1)C(=O)N1CCOCC1	i	-1	4	/	65*	18	4	25
C#CCSc1nc(C)cc(C(=O)OCC)c1C#N	/	0	-1	/	2	-16	-6	-6

Compounds as they come, and some 3% of all compounds hit somewhere here.
